Source: PubChem
Lassa entry inh: qHTS for Inhibitors of binding or entry into cells for Lassa Virus; Lassa virus pseudotype entry inhibition, cell reporter; control for the full effect not named in the record; 300,000 tested, 1.2% active; Potency, µM (titrated, usually from 37.9 µM), without a hit: top-dose activity change, negative = inhibition, actives largely listed as inhibitors; active means well fitted inhibition curve with a large enough effect; inconclusive means small, poorly fitted or top-dose-only effect, or effect the other way; inactive means flat fitted curve, though single readings scatter; tested in HEK293 cells; further: on the % scale 0 is the no-effect control and ±100 the full control effect; nearly all actives have a fitted effect of over 50% in size; luciferase read-out
2A StopGo: High Throughput Screening for Foot and Mouth Disease Virus Antivirals; AID 1159524, 2015; Potency, µM (doses to about 57.9 µM), for the others: top-dose signal change, negative = less light; human cells with a luciferase reporter of 2A StopGo recoding; control for the full effect not named in the record; 410,000 tested, 1.2% active; active = well fitted falling curve with a large enough effect; inconclusive = small, poorly fitted or top-dose-only effect; inactive = no such curve, though single readings can be large or run the other way; tested in HEK293T cells; further: on the % scale 0 is the no-effect control and ±100 the full control effect; nearly all actives have a fitted effect of over 45% in size; luciferase light after 4 h
MARV entry inh: qHTS for inhibitors of binding or entry into cells for Marburg Virus. Marburg virus pseudotyped entry inhibition, cell reporter; control for the full effect not named in the record; about a third of the inactives were read at about 46 µM. Potency, µM (highest dose often 37.8 µM), inactives show top-dose activity change, negative = inhibition, most hits filed as inhibitors. 300,000 tested, 1.8% active. AID 540276, 2011; active = well fitted inhibition curve with a large enough effect; inconclusive = small, poorly fitted or top-dose-only effect, or effect the other way; inactive = flat fitted curve, though single readings scatter; tested in HEK293 cells; about a fifth of its hits are not listed in these tables; further: on the % scale 0 is the no-effect control and ±100 the full control effect; luciferase read-out
Cruzain inh Det: qHTS Assay for Promiscuous and Specific Inhibitors of Cruzain (with detergent); AID 1478, 2009; purified cruzain, Z-FR-AMC fluorescence, 0.01% Triton; Potency, µM, for the others: max response, negative = inhibition, most hits filed as inhibitors; 200,000 tested, 0.43% active;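 further: plate controls were neutral wells for no effect and buffer without enzyme for full effect; nearly all actives have a fitted effect of over 40% in size; top concentration of the series not given in the record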
Target sequence (P25779 123-467 limits assumed): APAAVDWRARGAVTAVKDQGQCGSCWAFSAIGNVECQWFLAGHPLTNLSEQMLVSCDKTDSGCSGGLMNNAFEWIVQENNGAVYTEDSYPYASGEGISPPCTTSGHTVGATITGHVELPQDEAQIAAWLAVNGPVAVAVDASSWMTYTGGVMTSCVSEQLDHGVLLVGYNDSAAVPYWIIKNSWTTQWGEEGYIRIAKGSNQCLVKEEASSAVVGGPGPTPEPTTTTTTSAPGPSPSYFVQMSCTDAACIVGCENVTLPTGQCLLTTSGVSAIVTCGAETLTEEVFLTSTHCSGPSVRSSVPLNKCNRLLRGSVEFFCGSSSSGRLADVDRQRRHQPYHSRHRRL
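15 min RT preincubation of 1.5 nM cruzain with compound, then 2 uM Z-FR-AMC added; kinetic AMC fluorescence, 60 s delta. Triton X-100 0.01%, pH 5.5.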
SARS PLP yeast: qHTS of Yeast-based Assay for SARS-CoV PLP. S. cerevisiae expressing SARS-CoV PLpro, growth rescue; control for the full effect not named in the record. Potency, µM (titrated, usually from 32.9 µM), inactives show at the highest dose activity, positive = growth rescue. 330,000 tested, 0.19% active. AID 485353, 2010; active means well fitted rising curve with a large enough effect; inconclusive means small, poorly fitted or top-dose-only effect; inactive means no such curve, though single readings can be large or run the other way; further: 0% is about no effect; nearly all actives have a fitted effect of over 55% in size; growth read by luminescence after 48 h
Cruzain inh noDet: qHTS Assay for Promiscuous and Specific Inhibitors of Cruzain (without detergent); purified cruzain, Z-FR-AMC fluorescence, no detergent; Potency, µM, inactives show max response, negative = inhibition, usual class: inhibitors; 200,000 tested, 2.3% active; AID 1476, 2009;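 further: plate controls were enzyme without inhibitor for no effect and buffer without enzyme for full effect; nearly all actives have a fitted effect of over 40% in size; top concentration of the series not given in the record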
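Purified cruzain at 1.5 nM, pre-incubated 15 min with compound at room temperature in 100 mM sodium acetate pH 5.5, 5 mM DTT, 0.00005% Triton X-100. Reaction started with 2 uM Z-FR-AMC; AMC fluorescence increase over 60 s gives rate.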
RE007 growth inh: qHTS Assay for Inhibitors of the HIV-1 protein Vpr | S. pombe RE007 Vpr strain, BacTiter-Glo ATP luminescence, 24 h; control for the full effect not named in the record | Potency, µM (top dose mostly 92.2 µM), for inactives: at the highest dose activity change, negative = less growth | 360,000 tested, 0.21% active; active = well fitted falling curve with a large enough effect; inconclusive = small, poorly fitted or top-dose-only effect; inactive = no such curve, though single readings can be large or run the other way;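 further: on the % scale 0 is the no-effect control and ±100 the full control effect; nearly all actives have a fitted effect of over 50% in size; the assay follows cell death caused by Vpr and the record does not say whether a fall means rescue or toxicity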
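Fission yeast strain RE007, carrying one chromosomally integrated HIV-1 vpr copy, was seeded at OD 0.01 in PMG+AL medium with 23 nL pinned compound. After 24 h at 30 °C and 99% humidity, viability was read by BacTiter-Glo luminescence.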
NS1 function inh: qHTS Assay for Inhibitors of Influenza NS1 Protein Function; S. cerevisiae slowed by influenza A NS1, growth recovery by OD600; AID 2326, 2010; 270,000 tested, 0.4% active; Potency, µM (series often up to 46.1 µM), without a hit: top-dose activity, positive = more growth; active means well fitted rising curve with a large enough effect; inconclusive means small, poorly fitted or top-dose-only effect; inactive means no such curve, though single readings can be large or run the other way; further: nearly all actives have a fitted effect of over 50% in size
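S. cerevisiae expressing influenza A NS1, grown in glucose, washed, then diluted 1:100 into pH 6.0 -URA galactose medium with 23 nl compound. Growth recovery read as OD600; NS1-free strain serves as control.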
The depositor's hits bear a star; ? = inconclusive; / = no result given; & = joins results of further samples; [ ] = dose if it differs, or a comment. Unless noted, the call rests on the fitted dose curve; in most records, active means well fitted curve in the direction sought with a large enough effect; inconclusive means small, poorly fitted or top-dose-only effect, or another doubt; inactive means no such curve, though single readings can be large; an effect the other way counts as inactive or inconclusive. Potency means the concentration at half of the fitted maximal effect. The order is random; overall some 4.7% were active at least once.

nr	compound	Lassa entry inh	2A StopGo	MARV entry inh	Cruzain inh Det	SARS PLP yeast	Cruzain inh noDet	RE007 growth inh	NS1 function inh
1	CC(Oc1ccccc1F)C(=O)NN (configuration not stated)	7%	-15%	1%	0.5%	-25%	-3%	5%	5%
2	CCN(C(=O)C1CCCO1)c1ccccc1 (configuration not stated)	1%[46.1 µM]	2%	17%[46.1 µM]	/	?	/	-9%	15%
3	COc1cc(/C=C(\C#N)C(=O)N2CCOCC2)cc(Br)c1O	11%	0%	?	4.0%	26%	3%	-2%	-4%
4	Cc1ccc(-n2c3c(c(=O)[nH]c2=O)C(NS(=O)(=O)c2ccc(C)cc2)(C(F)(F)F)C(=O)N3)cc1 (configuration not stated)	2%[46.1 µM]	-15%&13%	?	-10%&-1.6%	-3%	-11%&-4%	0%	-4%
5	Cc1cc(C)n2ncc(/C(N)=N/OC(=O)c3ccccc3F)c2n1	-23%	-7%	-2%	/	-1%	/	6%	-4%
6	CCOC(=O)Nc1ccc2c(c1)OCO2	-9%	49%[activator]	13%	11%	-1%	-3%	-10%	-4%
7	Cc1ccc(C(=O)NNC(=O)c2ccco2)cc1	1%	11%	?	-1.4%	-4%	-18%	-9%	9%
8	COCCNC(=O)c1ccc2nc(Cc3ccccc3)oc2c1	-9%[46.1 µM]	15%	/	-0.7%	/	-10%	/	/
9	CCOC(=O)c1ccc(NC(=S)NC(=O)c2cncc(Br)c2)cc1	14%	-8%	5%[46.1 µM]	/	1%	/	-10%	1%
10	COc1ccc(NC(=O)c2cccc(NS(=O)(=O)c3ccccc3)c2)cc1	/	31%[activator]	/	/	3%	/	-3%	9%
11	c1ccc(-c2noc(CN3CCc4sccc4C3)n2)cc1	/	24%	-4%[46.1 µM]	/	-1%	/	56%	-7%
12	COc1ccc(C(CNC(=O)c2ccc(S(=O)(=O)N(C)C)cc2)N2CCCCC2)cc1 (configuration not stated)	-44%	-17%	-21%[46.1 µM]	/	23%	/	2%	/
13	CC/C(=N/Nc1cccc(C)c1)c1cnnc(SC)n1	-8%	?	?	-7.4%	-1%	?	4%	3%
14	O=C(OCC1CCCO1)c1ccc2c(c1)N(Cc1cccc(Cl)c1)C(=O)c1ccccc1S2(=O)=O (configuration not stated)	-6%[46.1 µM]	-14%	/	-2.4%	/	-13%	/	/
15	Cc1cnn(C(=O)Cn2nc(C(F)F)c(Br)c2C)c1	-4%	-20%	23%[46.1 µM]	/	1%	/	6%	/
16	Cc1ccc(-n2nc3ccc(N)cc3n2)cc1Cl	/	-14%	/	/	-1%	/	4%	8%
17	Cc1nnc(NC(=O)CSc2nc(C3CCCCC3)nc3ccccc23)s1	-19%	/	-6%	4.8%	7%	?	11%	7%
18	Cc1cc(C)c2c(=O)[nH]c(SCC(=O)c3ccc(C)c(C)c3)nc2n1	-2%	3%	10%[46.1 µM]	/	0%	/	-10%	/
19	Cc1cccc(C(=O)Nc2ccc(Cl)cc2C(=O)c2ccccc2)c1	0%	-16%	-17%	-1.9%	-26%	10%	-2%	-11%
20	Cc1nn(-c2ccccc2)c(Cl)c1/C=C1\SC(=S)N(CCCCCC(=O)O)C1=O	/	-20%	/	/	-2%	/	-13%	13%
21	O=C(COC(=O)c1ccccn1)Nc1cccc(Cl)c1	1%	18%	9%	6.6%	-21%	9%	-26%	-36%
22	CCS(=O)(=O)c1ccc2c(c1)NC(=O)C(CCO)O2 (configuration not stated)	11%	2%	-4%	/	0%	/	-1%	-2%
23	O=C(Oc1ccc(Cl)cc1)c1cc(-c2ccc3c(c2)OCCO3)on1	14%[46.1 µM]	8%	?	-1.3%	/	4%	/	/
24	CCOC(=O)C1CCN(C/C=C/c2ccccc2[N+](=O)[O-])CC1	17%	-1%	0%	/	-3%	/	-7%	-11%
25	Cc1cc(-n2c(C)cc(C(=O)CSc3nnnn3-c3ccc(Cl)cc3)c2C)no1	?	/	?	-0.9%	-18%	?	-2%	-6%
26	Cc1ccc(NC(=O)C2CC(=O)n3ncnc3N2)cc1 (configuration not stated)	6%	-7%	7%	2.9%	-4%	-7%	-6%	2%
27	COc1ccccc1OC(C)C(=O)NNC(=S)NC1CCCC1 (configuration not stated)	2%	-9%	?	/	-1%	/	-24%	/
28	O=C(CSc1ccccn1)N/N=C/c1cccc([N+](=O)[O-])c1	8%	9%	?	3.0%	-12%	-2%	-5%	-1%
29	COc1ccc(NC(=O)COC(=O)c2cc(SC)ccc2Cl)c(OC)c1	-26%	-13%	?	-7.4%	-2%	-9%	8%	4%
30	NS(=O)(=O)c1ccc(NC(=O)CCn2c(=O)oc3ccccc32)cc1	-10%[46.1 µM]	-9%	-23%[46.1 µM]	0.3%	/	-8%	/	/
31	Cc1ccc2[nH]c3c(c2c1)CN(C(=O)CN1c2ccc(F)cc2CCC1C)CC3 (configuration not stated)	?	?	?	-7.5%	-15%	-28%	1%	-19%
32	Cc1cc(C)n2nc(/C(C#N)=C/c3ccccn3)c(C#N)c2n1	10µM*	?	?	/	1%	/	-11%	/

Full records, quoted from the list. Order of values: Lassa entry inh | 2A StopGo | MARV entry inh | Cruzain inh Det | SARS PLP yeast | Cruzain inh noDet | RE007 growth inh | NS1 function inh
Cc1ccc(NC(=O)C2CC(=O)n3ncnc3N2)cc1 (configuration not stated) is listed as 6% | -7% | 7% | 2.9% | -4% | -7% | -6% | 2%
COc1ccccc1OC(C)C(=O)NNC(=S)NC1CCCC1 (configuration not stated) is listed as 2% | -9% | ? | / | -1% | / | -24% | /
Cc1cc(C)n2nc(/C(C#N)=C/c3ccccn3)c(C#N)c2n1 is listed as 10µM* | ? | ? | / | 1% | / | -11% | /

(continued)
nr	compound	Lassa entry inh	2A StopGo	MARV entry inh	Cruzain inh Det	SARS PLP yeast	Cruzain inh noDet	RE007 growth inh	NS1 function inh
33	CCCCSCCCNC(=O)Nc1ccc(CC)cc1	-4%	21%	-2%[46.1 µM]	/	-5%	/	3%	/
34	COc1cccc(OC(=O)c2ccccc2)c1OC(=O)c1ccccc1	?	-8%	-13%	/	/	/	-17%	/
35	O=C(Cn1ncn2c(cc3ccccc32)c1=O)NCc1ccc(F)cc1	/	2%	2%[46.1 µM]	0.7%	/	-2%	/	/
36	CN(c1ccc(C(=O)N2CCN(Cc3ccccc3)CC2)cc1)S(=O)(=O)c1ccccc1	?	-11%	-25%[46.1 µM]	/	3%	/	-8%	-13%
37	CCOC(=O)c1ccoc1CSCc1ccc(C(=O)OC)o1	1%	-20%	19%	1.7%	0%	1%	-17%	-49%
38	COc1ccc(C(O)P(=O)(OCC(C)C)OCC(C)C)c(OC)c1 (configuration not stated)	10%	10%	?	-3.2%	-9%	?	/	-4%
39	O=c1[nH]c(NCc2ccccc2)nc2c1CCCC2	3%	9%	-12%	-2.8%	-8%	-5%	-11%	-6%
40	CS(=O)(=O)N1CCN(c2ccc(NC(=S)NC(=O)c3cccs3)cc2)CC1	15%	-7%	-2%	/	1%	/	7%	4%
41	COc1ccc(CN(C)C(=O)/C=C/c2ccc(S(=O)(=O)N3CCCCCC3)cc2)cc1	5µM*	?	?	/	0%	/	18%	/
42	CCc1cccc(NC(=S)Nc2ccc(CN3CCOCC3)cc2)c1	6%	?	-8%[46.1 µM]	/	-1%	/	-13%	/
43	Cc1n[nH]c(C)c1CCCCOc1ccccc1F	6%[46.1 µM]	-25%	?	/	5%	/	3%	-3%
44	CCc1ccc(NC(=O)N(Cc2cn(CC)c3ccccc23)C2CCCCC2)cc1	?	60%[activator]	?	-3.1%	/	?	/	/
45	CCOc1ccc(NC(=O)CN2CCCC2c2cccs2)cc1S(=O)(=O)N1CCCCC1 (configuration not stated)	?	-7%	?	/	2%	/	-12%	/
46	COc1ccc(CNC(=O)c2ccc(NC(=O)N3CC4CCCN4c4ccccc43)cc2)cc1 (configuration not stated)	-11%[46.1 µM]	-9%	?	-6.8%	/	?	/	/
47	CCN(c1cccc(C)c1)S(=O)(=O)c1ccc2c3c(cccc13)C(=O)N2	?	?	?	-17%	23%	12%	2%	4%
48	O=[N+]([O-])c1ccccc1CN1CCN(S(=O)(=O)Cc2ccccc2)CC1	?	?	-5%	/	2%	/	-18%	7%

Entries shown so far that contain fluorine (seven):
nr	compound	Lassa entry inh	2A StopGo	MARV entry inh	Cruzain inh Det	SARS PLP yeast	Cruzain inh noDet	RE007 growth inh	NS1 function inh
1	CC(Oc1ccccc1F)C(=O)NN (configuration not stated)	7%	-15%	1%	0.5%	-25%	-3%	5%	5%
4	Cc1ccc(-n2c3c(c(=O)[nH]c2=O)C(NS(=O)(=O)c2ccc(C)cc2)(C(F)(F)F)C(=O)N3)cc1 (configuration not stated)	2%[46.1 µM]	-15%&13%	?	-10%&-1.6%	-3%	-11%&-4%	0%	-4%
5	Cc1cc(C)n2ncc(/C(N)=N/OC(=O)c3ccccc3F)c2n1	-23%	-7%	-2%	/	-1%	/	6%	-4%
15	Cc1cnn(C(=O)Cn2nc(C(F)F)c(Br)c2C)c1	-4%	-20%	23%[46.1 µM]	/	1%	/	6%	/
31	Cc1ccc2[nH]c3c(c2c1)CN(C(=O)CN1c2ccc(F)cc2CCC1C)CC3 (configuration not stated)	?	?	?	-7.5%	-15%	-28%	1%	-19%
35	O=C(Cn1ncn2c(cc3ccccc32)c1=O)NCc1ccc(F)cc1	/	2%	2%[46.1 µM]	0.7%	/	-2%	/	/
43	Cc1n[nH]c(C)c1CCCCOc1ccccc1F	6%[46.1 µM]	-25%	?	/	5%	/	3%	-3%
